# Assay outcomes: PubChem BioAssay, several laboratories
# RecA intein inh: Mtb RecA intein splicing inhibition; cell-free RecA intein splicing, fluorescence; inhibition, %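 (about 9 µM by stock and volumes)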; 290,000 compounds, 0.75% hits; in the data active = inhibition above about 30%; inconclusive = no clear call, values can overlap the other calls;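 also: 0% = vehicle wells and 100% = reference inhibitor control wells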
# Target sequence (P9WHJ3 whole entry, looked up): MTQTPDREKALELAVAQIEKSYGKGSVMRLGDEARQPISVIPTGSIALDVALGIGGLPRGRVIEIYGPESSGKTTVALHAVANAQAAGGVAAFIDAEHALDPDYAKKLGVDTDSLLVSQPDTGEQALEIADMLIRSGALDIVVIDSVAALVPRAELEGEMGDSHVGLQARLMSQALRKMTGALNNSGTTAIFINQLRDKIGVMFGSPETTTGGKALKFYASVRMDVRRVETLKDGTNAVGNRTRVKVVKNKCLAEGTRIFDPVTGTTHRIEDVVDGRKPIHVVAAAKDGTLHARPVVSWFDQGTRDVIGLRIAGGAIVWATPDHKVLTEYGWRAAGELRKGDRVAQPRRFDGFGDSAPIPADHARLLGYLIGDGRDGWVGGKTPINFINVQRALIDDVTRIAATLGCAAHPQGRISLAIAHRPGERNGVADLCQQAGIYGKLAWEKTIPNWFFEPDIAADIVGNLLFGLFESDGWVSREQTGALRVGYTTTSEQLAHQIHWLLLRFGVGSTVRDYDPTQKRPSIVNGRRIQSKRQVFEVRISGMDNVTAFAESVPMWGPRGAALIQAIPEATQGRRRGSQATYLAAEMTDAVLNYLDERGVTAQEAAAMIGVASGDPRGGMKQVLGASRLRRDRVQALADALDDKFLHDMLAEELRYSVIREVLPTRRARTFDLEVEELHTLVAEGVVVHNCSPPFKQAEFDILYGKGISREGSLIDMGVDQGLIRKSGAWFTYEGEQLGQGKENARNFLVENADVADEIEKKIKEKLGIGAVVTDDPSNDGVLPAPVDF
# Arbovirus anti: arbovirus infection inhibition | 200,000 compounds, 0.37% hits | arbovirus infection cell-based antiviral screen | inhibition, % at 10 µM;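 active = inhibition from about 30%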;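 also: bluetongue infection of BSR cells; cell survival read as ATP light after 72 h; 0% = infected wells without compound and 100% = uninfected wells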
# Mtb betalactam: beta-lactam sensitization of Mtb H37Rv; inhibition, % at 25 µM; M. tuberculosis H37Rv growth with meropenem, percent inhibition; hits of this screen are not shown here; 330,000 compounds, 0.27% hits; AID 434955;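 active = about 74% or more and at least 40 points above the plate without the antibiotic, then above 30% in a dose series; inconclusive = first-round hits that could not be retested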;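 also: growth measured after seven days incubation then overnight dye step; 0% = bacteria only wells and 100% = bacteria with antibiotic; twin plates without the antibiotic show which effects depend on it; some results filed as inactive read as strong as hits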
# YopH inh: YopH (Yersinia) phosphatase inhibition; fluorescence Ex485/Em525; inhibition, %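 (about 10 µM by stock and volumes)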; 140,000 compounds, 0.16% hits;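 active = inhibition of 50% or more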;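 also: controls were vehicle for no effect and minimum signal wells for full effect; inactives centre near -20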
# Mtb H37Rv: M. tuberculosis H37Rv growth inhibitors, H37Rv strain (AID 1626); M. tuberculosis H37Rv growth inhibition; higher % means a stronger effect; one-dose inhibition, % at 10 µM; IC50 in µM for titrated hits; 220,000 compounds, 0.95% hits;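 active = confirmed in a dose series; inconclusive = inhibition above 80% but not taken into the dose series; inactive = below 80% or under 30% at every dose of the series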;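 also: bacteria incubated seven days before Alamar blue readout; 0% = bacteria only wells and 100% = bacteria with antibiotic wells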
# An asterisk follows results filed as active; ? = inconclusive; / = no result given; & = joins results of further samples.
# Every second line gives: RecA intein inh	Mtb H37Rv	YopH inh	Mtb betalactam	Arbovirus anti
> O=C(NCc1ccc(Cl)cc1)C1CCCCN1S(=O)(=O)c1ccccc1 (configuration not stated)
→ 3.1	/	/	0	/
> O=C(NCc1ccc2c(c1)OCO2)C1CC(=O)N(c2ccc(O)cc2)C1 (configuration not stated)
→ 4.0	1%	-20	1	-1
> COc1ccc(N=C2SC(CC(=O)Nc3ccccc3)C(=O)N2CCc2ccccn2)cc1 (configuration not stated)
→ -2.7	4%	-14	-3	-9
> N=c1c(S(=O)(=O)c2ccc(Br)cc2)cc2c(=O)n3ccccc3nc2n1Cc1ccccc1
→ 2.9	/	/	1	/
> C/C(=N\Nc1nc(N2CCOCC2)nc(N2CCOCC2)n1)c1cccc([N+](=O)[O-])c1
→ 0.7	2%	/	3	-3
> Cc1cccn2c(=O)c3cc(C#N)c(=NC(=O)c4ccco4)n(Cc4ccco4)c3nc12
→ -93	-19%	/	2	/
> COc1ccc(-n2c(SC(C)C(=O)N3CCOCC3)nc3ccccc3c2=O)cc1 (configuration not stated)
→ 1.0	/	/	-14	/
> CC(=O)Nc1c(C(=O)O)oc2ccccc12
→ 0.3	2%	-44	-3	9
> NC(=O)Nc1ccccc1C(=O)NCCc1ccccc1
→ -0.7	-1%	-35	-6	0
> CN(c1cccc(NC(=O)CN(c2cccc(Cl)c2)S(=O)(=O)c2ccc(Cl)cc2)c1)S(C)(=O)=O
→ -0.3	7%	-32	-7	-6
> Cc1cc(C(=O)O)c2ccccc2n1
→ -0.5	-5%	-21	4	14
> Cn1c(SCC(=O)N2CCCC2)nnc1-c1cccs1
→ -2.3	/	/	2	/
> NNc1nccc(Nc2ccccc2C(=O)O)n1
→ -4.5	-3%	-21	-1	-17
> Cn1c(C(=O)O)c(C=O)c2ccccc21
→ -4.2	4%	/	-7	11
> Cc1ccc(C(=O)/C=C/c2c[nH]c3ccccc23)cc1
→ 1.2	21%	-18	36	-8
> COc1ccc(N2CCN(C(=O)c3ccc(Br)o3)CC2)cc1
→ -0.6	/	/	-6	/
> O=C(/C=C/c1ccc([N+](=O)[O-])cc1)Oc1ccc(/C=N/NC(=O)c2ccncc2)cc1
→ 0.9	/	/	99	/
> O=C(NCC12CC3CC(CC(C3)C1)C2)c1nn2c(c1Cl)NC(c1ccco1)CC2C(F)(F)F (configuration not stated)
→ 3.4	/	-22	4	-10
> COc1ccccc1C(=O)Nc1ccnn1C1CCN(C/C=C/c2ccccc2)CC1
→ 0.3	/	/	4	/
> CCn1c(SCC(=O)Nc2nncs2)nnc1-c1ccco1
→ -2.3	/	/	-5	/
> Cc1ccc(S(=O)(=O)N2CCOCC2)cc1NC(=O)CSc1nnc(N)s1
→ 1.0	3%	/	4	7
> CCN1C(=O)c2ccccc2S(=O)(=O)c2ccc(C(=O)N3CCOCC3)cc21
→ -0.2	9%	-20	-1	2
> S=C(Nc1ccc(Cl)cc1)N1CCN(C2CCCCC2)CC1
→ 3.6	1%	-18	-13	11
> O=C(CSc1ccccc1)N1CCC(N2CCC(C(=O)N3CCCC3)CC2)CC1
→ -2.2	-3%	/	-4	9
> CC(NC(=O)CCCN1C(=O)c2ccccc2C1=O)c1ccc2c(c1)CCCC2 (configuration not stated)
→ 6.7	4%	-9	-11	-4
> Cc1cccc(NC(=O)CSCC(=O)N(C)CC(=O)Nc2cccc(F)c2)c1
→ -0.6	/	/	-5	/
> COC(=O)C(NS(=O)(=O)c1ccc(NC(C)=O)cc1)C(C)C (configuration not stated)
→ -0.6	-1%	-45	-2	0
> CCN(CC)S(=O)(=O)c1cccc(C(=O)N/N=C(\C)c2ccc(O)cc2O)c1
→ -0.4	1%	/	2	-26
> CC1(C)Cc2ccccc2-c2nc(-c3ccccc3)oc(=O)c21
→ 3.3	7%	6	52	1
> COc1ccc2nc(Nc3nc4cc5c(cc4s3)OCO5)sc2c1
→ -4.2	9%	-8	79	-5
> CCOC(=O)C1CCCN(C(=O)Cn2nc(C)n3nc(-c4ccccc4)cc3c2=O)C1 (configuration not stated)
→ 4.4	/	/	?	/
> O=C(COC(=O)CCc1ccc(S(=O)(=O)N2CCOCC2)cc1)NC(=O)NC1CCCCC1
→ 0.6	9%	/	-4	-5
> COc1ccc(CN2CCNC(=O)C2CC(=O)NC2Cc3ccccc3C2)c(OC)c1 (configuration not stated)
→ /	-2%	/	5	7
> COc1cc(/C=N/NC(=O)c2cccc([N+](=O)[O-])c2)ccc1OCc1ccccc1
→ -0.7	1%	-8	5	0
> COc1ccc(-c2nc(CN3CCC(C(=O)NCC4CCCO4)CC3)c(C)o2)cc1OC (configuration not stated)
→ -0.1	/	/	6	/
> O=C(O)CCCC(=O)Nc1ccc(C(=O)NCc2cccnc2)cc1
→ /	-4%	-28	-12	2
> CCOc1ccc(OCC)c(NC(=O)CN2CCN(CC(=O)NC(C)C)CC2)c1
→ -0.1	/	/	-12	/
> COC(=O)c1sc(NC(=O)COc2cccc(C)c2)nc1C
→ -1.9	3%	-33	-5	-18
> c1cncc(COC2CCCN(Cc3nc(-c4cccs4)no3)C2)c1 (configuration not stated)
→ -0.4	0%	/	1	-2
> CCN(CC)CCNC(=O)c1ccc(NC(C)=O)cc1
→ 0.6&-1.5	6%&-2%	-47	-4&-5	6
> O=C(O)c1cc(S(=O)(=O)NC23CC4CC(CC(C4)C2)C3)ccc1Cl
→ 1.5	/	/	3	/
> CC1(C)CC(=O)C2=C(C1)NC(=O)C21C(C(=O)OC(C)(C)C)=C(N)Oc2ccc(Br)cc21 (configuration not stated)
→ -0.7	-4%	-34	?	9
> Cc1ccc(C(=O)NC(=O)CSc2ncccc2C(=O)O)cc1
→ -3.9	-1%	/	4	4
> O=C(NCCc1ccccc1)c1ccc(Cl)nc1
→ -3.7	-2%	18	-4	-10
> Cc1occc1C(=O)NNC(=O)C1CC1
→ -0.3	3%	/	6	4
> COc1ccccc1N1CCN(C(=O)C2CC=CCC2C(=O)O)CC1 (configuration not stated)
→ -2.5	-2%	-33	-13	3
> NC(=O)Cn1cc(/C=N\NS(=O)(=O)c2ccccc2)c2ccccc21
→ -3.5	/	/	-3	/
> CCCCc1cc(=O)oc2cc(C)cc(OCc3nn[nH]n3)c12
→ -1.0	-6%	-15	-7	7
> N=C1/C(=C/c2coc3ccccc3c2=O)C(=O)N=C2SC(c3ccco3)=NN12
→ 0.5	1%	/	3	/
> CN(C)P(=O)(NC(=O)c1cccn1C)N(C)C
→ -0.4	-12%	/	-4	-1
> COc1ccc(-c2nc(SCC(=O)Nc3c(F)cccc3F)n[nH]2)cc1
→ -0.2	/	/	6	/
> CC(C)C(=O)Nc1cc(=O)[nH]c2ncnn12
→ /	-11%	-35	0	4
> COc1cccc(CNn2cnnc2)c1OCc1ccc(F)cc1
→ 0.9	-11%	-41	9	5
> O=C1CC(c2c(F)cccc2Cl)C2=C(COC2=O)N1 (configuration not stated)
→ -0.6	6%	-56	-1	3
> COc1cc(CN2CCN(c3ccccc3C)CC2)cc([N+](=O)[O-])c1O
→ -0.5	-3%	9	1	6
> O=C(CN(C(=O)c1ccccc1Cl)N1C(=O)C2C3C=CC(C3)C2C1=O)c1cccs1 (configuration not stated)
→ 1.9	2%	/	5	0
> Nc1nc(-c2ccc([N+](=O)[O-])cc2)c(C(=O)Nc2ccc(Cl)cc2)s1
→ -4.9	-7%	/	-1	/
> O=C1CCC(C(=O)OCc2ccccc2)N1 (configuration not stated)
→ -0.8	-5%	1	2	6
> CCN(c1ccccc1)c1ncnc2c1cnn2-c1ccccc1
→ 9.1	13%	4	8	0
> CCn1c2c(c3cc(Br)ccc31)CCC/C2=N\O
→ 6.2	9%	-30	-5	-25

# Molecules above containing a thiophene ring, fused or not (3):
# Every second line gives: RecA intein inh	Mtb H37Rv	YopH inh	Mtb betalactam	Arbovirus anti
> Cn1c(SCC(=O)N2CCCC2)nnc1-c1cccs1
→ -2.3	/	/	2	/
> c1cncc(COC2CCCN(Cc3nc(-c4cccs4)no3)C2)c1 (configuration not stated)
→ -0.4	0%	/	1	-2
> O=C(CN(C(=O)c1ccccc1Cl)N1C(=O)C2C3C=CC(C3)C2C1=O)c1cccs1 (configuration not stated)
→ 1.9	2%	/	5	0

# Next section:
# Every second line gives: RecA intein inh	Mtb H37Rv	YopH inh	Mtb betalactam	Arbovirus anti
> COc1ccc(NC(=O)c2ccccc2NC(=O)C2CC=CCC2C(=O)O)cc1 (configuration not stated)
→ -5.0	/	/	-5	/
> Cc1[nH]c(=O)nc(SCc2ccc(Cl)c(Cl)c2)c1C#N
→ 0.8	/	/	-2	/
> CC1CC(C#N)N(N(C)C)C1=C(C#N)C#N (configuration not stated)
→ 1.2	-6%	/	0	/
> CSc1ncc(Cl)c(C(=O)Nc2nnc(SC)s2)n1
→ -5.2	-7%	-17	1	6
> COc1ccc2[nH]c(=O)c(CN(CCO)C(=O)NCc3ccccc3)cc2c1
→ -2.5	-6%	-9	-2	1
> c1ccc(-c2nnc(-c3ccccc3)c(-c3c[nH]c4ccccc34)n2)cc1
→ 3.4	1%	28	20	0
> O=C(COn1nnc2ccc(Cl)cc21)Nc1ccc(F)cc1
→ 1.2	-12%	/	11	11
> O=C(NNC(=S)Nc1ccc(F)cc1)C1CC1c1ccc(Cl)cc1 (configuration not stated)
→ -1.5	4%	-20	0	9
> COc1cccc(CN(C(=O)c2cnccn2)C(C(=O)NC2CCCCC2)c2cc(OC)c(OC)c(OC)c2)c1 (configuration not stated)
→ -1.1	/	/	-6	/
> Cc1ccc(S(=O)(=O)N2CCN(CC(O)c3ccccc3)CC2)cc1C (configuration not stated)
→ 1.3	0%	/	-2	5
> COC(=O)C(O)(c1ccc(NC(=S)NC(=O)c2ccccc2)cc1)C(F)(F)F (configuration not stated)
→ 2.2	1%	-10	2	6
> COc1ccc(C(=O)Nc2ccc(/C(C)=N/NC(=O)c3ccccc3O)cc2)cc1OC
→ -1.7	11%	-29	1	6
> CC(C)Cc1nnc(NC(=O)CCC(=O)N2CCC3(CC2)OCCO3)s1
→ 0.0	2%	/	-8	/
> Cc1ccccc1/C=N/NC(=O)Cn1nnc(N)n1
→ -1.4	-3%	12	4	5
> Cc1c(-c2cccs2)[n+](=O)c2c(n1[O-])CCC2
→ -1.7	-8%	-52	6	6

# One compound at a time (already shown).
# Shown for CSc1ncc(Cl)c(C(=O)Nc2nnc(SC)s2)n1 → RecA intein inh = -5.2; Mtb H37Rv = -7%; YopH inh = -17; Mtb betalactam = 1; Arbovirus anti = 6
# Shown for COC(=O)c1sc(NC(=O)COc2cccc(C)c2)nc1C → RecA intein inh = -1.9; Mtb H37Rv = 3%; YopH inh = -33; Mtb betalactam = -5; Arbovirus anti = -18

# The results go on.
# Every second line gives: RecA intein inh	Mtb H37Rv	YopH inh	Mtb betalactam	Arbovirus anti
> CC(=O)N1CCN(C(=O)c2cc(S(=O)(=O)N(C)c3ccc(F)cc3)ccc2Cl)CC1
→ 1.1	/	/	-11	/
> Cc1ccc(-n2ncc3c2CC(C)(C)CC3NC(=O)CCn2cncn2)cc1 (configuration not stated)
→ -0.1	/	/	0	/
> CCN(CC)CCCNc1oc(-c2ccc(OC)c(OC)c2)nc1C#N
→ -0.3	6%	-58	-13	-2
> Cc1ccc(CSc2nc3nc(C)cc(C)c3c(=O)[nH]2)cc1
→ 3.3	0%	/	-6	3
> COC(=O)C1=C(C)N(Cc2ccccc2)C(=NCCCCO)N[C@H]1c1ccccc1
→ 0.9	/	/	-7	/
> CC(C)OC(=O)Cc1nc2sc(-c3ccccc3)cc2c(=O)[nH]1
→ -2.0	/	/	0	/
> COc1ccc(C(=O)/C=C/c2ccc(OC)c(COc3ccc(F)cc3)c2)cc1
→ 7.2	15%	-26	10	1
> N#CCC(=O)Nc1ccc(C(=O)OCC(=O)NNC(=O)c2cccs2)cc1
→ -1.8	/	/	0	/
> O=[N+]([O-])c1ccccc1S(=O)(=O)NCCc1ccncc1
→ -0.8	-3%	/	-2	0
> N/C(=N\OC(=O)Cc1ccc([N+](=O)[O-])cc1)c1ccccn1
→ -0.2	2%	/	/	-8
> O=C(CSc1ccc(-c2ccccn2)nn1)NC1CCCC1
→ -2.4	1%	/	1	-22
> CCN(CC)c1nc(Oc2ccc(=O)[nH]n2)nc(N2CCOCC2)n1
→ 5.9	1%	-13	-2	3
> O=C(Nc1ccc(F)cc1)c1ccc2ncsc2c1
→ -3.1	/	/	-2	/
> O=C(NCc1ccccn1)c1cc2cc(Br)ccc2oc1=O
→ -0.2	2%	-28	11	-1
> Cc1ccccc1/C=C\c1nc2ccccc2c(=O)[nH]1
→ 5.7	-1%	/	-1	-17
> CCOC(=O)c1[nH]c2ccccc2c1NC(=O)COC
→ -2.2	-3%	-45	-9	-4
> CC(C)C(c1nnnn1CCc1ccccc1)N1CCSCC1 (configuration not stated)
→ -0.9	-1%	/	2	-5
> Cc1ccc(P(=O)(OCCN2CCOCC2)C(C)(C)C)o1 (configuration not stated)
→ -1.0	-13%	-46	-1	4
> COc1cc(C2C(C#N)=C(N)Oc3c2c(-c2ccccc2)nn3-c2ccccc2)cc(OC)c1OC (configuration not stated)
→ 70*	-2%	-25	3	-2

# These rows are one share of the data; the hit share may differ from the screen's.
